Screens deposited in PubChem BioAssay by Broad Institute.
Ran importin – inhibitors of Ran–importin-beta complex formation, primary screen, biochemical, CFP-Ran/YFP-importin-beta FRET, RCC1, cell-free (AID 434961). CFP-Ran/YFP-importin-beta FRET, cell-free; hits give high values. inhibition, %. 7,700 tested, 0.2% active;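 active = more than half of the replicate wells above 15% inhibition; inconclusive = exactly half above it; inactive = fewer than half above it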;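 also: 0% = DMSO wells and 100% inhibition = RanGDP control wells on each plate; stock of unstated strength diluted about 400-fold; mean of two wells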
Active calls of the source: *; ? = inconclusive.

Ran importin,SMILES
-0.2,C[C@H](CO)N1C[C@H](C)[C@H](CN(C)Cc2ccncc2)Oc2c(NC(=O)NC3CCCCC3)cccc2C1=O
-4.5,C[C@@H]1CN([C@@H](C)CO)C(=O)Cc2cc(NC(=O)C3CC3)ccc2O[C@H]1CN(C)S(=O)(=O)c1cn(C)cn1
-1.0,CC(C)NC(=O)N(C)C[C@@H]1OCc2cn(nn2)CCCC(=O)N([C@@H](C)CO)C[C@@H]1C
-2.5,C[C@@H]1CN([C@H](C)CO)C(=O)CCCn2cc(nn2)CO[C@H]1CN(C)Cc1ccccc1
0.2,C[C@@H]1CN([C@H](C)CO)C(=O)Cc2cc(NS(C)(=O)=O)ccc2O[C@H]1CN(C)C(=O)Nc1ccc(C(F)(F)F)cc1
-1.5,C[C@@H]1CN([C@@H](C)CO)C(=O)c2cccc(NC(=O)NC3CCCCC3)c2O[C@@H]1CN(C)Cc1ccc(C(=O)O)cc1
-2.1,C[C@H]1CN([C@@H](C)CO)C(=O)Cc2cc(NS(=O)(=O)c3ccccc3)ccc2O[C@@H]1CN(C)S(=O)(=O)c1ccc(F)cc1
2.9,C[C@@H]1CN([C@@H](C)CO)C(=O)c2cc(NC(=O)Nc3ccc4c(c3)OCO4)ccc2O[C@H]1CN(C)C(=O)Nc1ccc(C(F)(F)F)cc1
0.0,C[C@H](CO)N1C[C@H](C)[C@H](CN(C)Cc2cccc3c2OCCCO3)OCc2cn(nn2)CCCC1=O
-1.4,C[C@@H]1CN([C@H](C)CO)C(=O)c2cccc(NC(=O)c3cnccn3)c2O[C@@H]1CN(C)S(=O)(=O)c1cn(C)cn1
-1.1,C[C@H](CO)N1C[C@H](C)[C@@H](CN(C)Cc2ccccc2)OCCCC[C@H](C)Oc2ccc(NS(=O)(=O)c3ccccc3)cc2C1=O
-0.8,C[C@H](CO)N1C[C@H](C)[C@@H](CN(C)C(=O)CCCN(C)C)OCCCC[C@H](C)Oc2ccc(NC(=O)Cc3ccccc3)cc2C1=O
-3.8,CNC[C@@H]1Oc2ccc(NS(=O)(=O)c3cccs3)cc2CC(=O)N([C@@H](C)CO)C[C@@H]1C
?,C[C@@H]1CN([C@H](C)CO)C(=O)CCCn2cc(nn2)CO[C@@H]1CN(C)Cc1ccc2c(c1)OCCN2C
?,Cc1noc(C)c1NC(=O)Nc1cccc2c1O[C@H](CN(C)S(=O)(=O)c1cn(C)cn1)[C@@H](C)CN([C@H](C)CO)C2=O
11.7,C[C@H](CO)N1C[C@H](C)[C@H](CN(C)S(=O)(=O)c2cn(C)cn2)Oc2ccc(NC(=O)CCCN(C)C)cc2CC1=O
-2.1,CNC[C@H]1OCCCC[C@H](C)Oc2ccc(N)cc2C(=O)N([C@H](C)CO)C[C@@H]1C
-0.3,COc1ccc(CN(C)C[C@@H]2OCCCC[C@@H](C)Oc3ccc(NC(=O)Nc4c(C)noc4C)cc3C(=O)N([C@H](C)CO)C[C@H]2C)cc1
-1.0,CC(C)NC(=O)N(C)C[C@H]1Oc2ccc(NC(=O)CCCN(C)C)cc2C(=O)N([C@H](C)CO)C[C@@H]1C
1.4,COc1ccc(S(=O)(=O)N(C)C[C@@H]2Oc3c(NS(C)(=O)=O)cccc3C(=O)N([C@H](C)CO)C[C@@H]2C)cc1
-0.7,C[C@H](CO)N1C[C@H](C)[C@H](CN(C)C(=O)Nc2ccccc2)Oc2ccc(NC(=O)C3CC3)cc2C1=O
?,C[C@H](CO)N1C[C@H](C)[C@@H](CN(C)Cc2ccccc2)OCCCC[C@H](C)Oc2ccc(NS(C)(=O)=O)cc2C1=O
-2.0,CNC[C@H]1Oc2ccc(NC(=O)NC3CCCCC3)cc2C(=O)N([C@H](C)CO)C[C@H]1C
-1.8,C[C@@H]1CCCCO[C@H](CN(C)C(=O)Cc2ccccc2)[C@@H](C)CN([C@@H](C)CO)C(=O)c2cc(NC(=O)Nc3ccccc3)ccc2O1

The last five records of the part before are carried over, then new ones follow.
Ran importin,SMILES
1.4,COc1ccc(S(=O)(=O)N(C)C[C@@H]2Oc3c(NS(C)(=O)=O)cccc3C(=O)N([C@H](C)CO)C[C@@H]2C)cc1
-0.7,C[C@H](CO)N1C[C@H](C)[C@H](CN(C)C(=O)Nc2ccccc2)Oc2ccc(NC(=O)C3CC3)cc2C1=O
?,C[C@H](CO)N1C[C@H](C)[C@@H](CN(C)Cc2ccccc2)OCCCC[C@H](C)Oc2ccc(NS(C)(=O)=O)cc2C1=O
-2.0,CNC[C@H]1Oc2ccc(NC(=O)NC3CCCCC3)cc2C(=O)N([C@H](C)CO)C[C@H]1C
-1.8,C[C@@H]1CCCCO[C@H](CN(C)C(=O)Cc2ccccc2)[C@@H](C)CN([C@@H](C)CO)C(=O)c2cc(NC(=O)Nc3ccccc3)ccc2O1
-0.8,C[C@@H]1CN([C@H](C)CO)C(=O)Cc2cc(NC(=O)NC3CCCCC3)ccc2O[C@@H]1CN(C)Cc1ccc(C(=O)O)cc1
3.1,C[C@H]1CN([C@@H](C)CO)C(=O)c2cccc(NS(C)(=O)=O)c2O[C@@H]1CN(C)S(=O)(=O)c1cccs1
-1.3,CNC[C@@H]1Oc2ncc(C#Cc3ccc(OC)c(OC)c3)cc2C(=O)N([C@H](C)CO)C[C@@H]1C
-7.7,C[C@H]1CN([C@@H](C)CO)C(=O)Cc2cc(NS(=O)(=O)c3cccs3)ccc2O[C@H]1CN(C)S(=O)(=O)c1ccccc1
2.6,COc1ccc(NC(=O)Nc2ccc3c(c2)C(=O)N([C@H](C)CO)C[C@@H](C)[C@@H](CN(C)C)O3)cc1
4.5,C[C@H](CO)N1C[C@H](C)[C@H](CN(C)C(=O)Nc2ccc3c(c2)OCO3)Oc2ccc(N(C)C)cc2C1=O
5.7,Cc1noc(C)c1S(=O)(=O)Nc1cccc2c1O[C@H](CN(C)C)[C@H](C)CN([C@H](C)CO)C2=O
0.0,C[C@H]1CN([C@@H](C)CO)C(=O)Cc2cc(NC(=O)CCCN(C)C)ccc2O[C@@H]1CN(C)S(=O)(=O)c1cn(C)cn1
-0.4,C[C@@H]1CCCCO[C@H](CN(C)C(=O)Nc2ccccc2)[C@@H](C)CN([C@H](C)CO)C(=O)c2cc(NC(=O)CCC(F)(F)F)ccc2O1
-1.1,COc1ccc(CN(C)C[C@H]2Oc3c(NC(=O)c4ccc(-c5nccs5)cc4)cccc3C(=O)N([C@H](C)CO)C[C@H]2C)cc1
-4.9,C[C@H](CO)N1C[C@H](C)[C@@H](CN(C)S(=O)(=O)c2cccs2)Oc2ccc(NC(=O)Cn3cnnn3)cc2C1=O
-7.1,CNC[C@@H]1OCCCC[C@H](C)Oc2ccc(NC(=O)c3ccncc3)cc2C(=O)N([C@H](C)CO)C[C@H]1C

Random excerpt: 4 compounds from above
Ran importin,SMILES
2.6,COc1ccc(NC(=O)Nc2ccc3c(c2)C(=O)N([C@H](C)CO)C[C@@H](C)[C@@H](CN(C)C)O3)cc1
-0.4,C[C@@H]1CCCCO[C@H](CN(C)C(=O)Nc2ccccc2)[C@@H](C)CN([C@H](C)CO)C(=O)c2cc(NC(=O)CCC(F)(F)F)ccc2O1
0.0,C[C@H]1CN([C@@H](C)CO)C(=O)Cc2cc(NC(=O)CCCN(C)C)ccc2O[C@@H]1CN(C)S(=O)(=O)c1cn(C)cn1
-7.1,CNC[C@@H]1OCCCC[C@H](C)Oc2ccc(NC(=O)c3ccncc3)cc2C(=O)N([C@H](C)CO)C[C@H]1C

Next part.
Ran importin,SMILES
1.7,Cc1noc(C)c1NC(=O)N(C)C[C@@H]1Oc2ccc(NC(=O)C3CC3)cc2CC(=O)N([C@H](C)CO)C[C@H]1C
-1.2,Cc1noc(C)c1S(=O)(=O)Nc1ccc2c(c1)C(=O)N([C@@H](C)CO)C[C@H](C)[C@@H](CN(C)C(=O)Nc1ccc3c(c1)OCO3)O2
1.1,C[C@@H]1CN([C@H](C)CO)C(=O)c2cccc(NS(C)(=O)=O)c2O[C@H]1CN(C)C(=O)Nc1cccc2ccccc12
-2.2,COc1ccc(S(=O)(=O)N(C)C[C@@H]2Oc3c(NC(=O)C4CCOCC4)cccc3C(=O)N([C@H](C)CO)C[C@@H]2C)cc1
8.9,CC(C)NC(=O)Nc1ccc2c(c1)C(=O)N([C@@H](C)CO)C[C@H](C)[C@H](CN(C)Cc1ccc(C(=O)O)cc1)OCCCC[C@@H](C)O2
-0.9,Cc1noc(C)c1S(=O)(=O)N(C)C[C@H]1Oc2ccc(NC(=O)NC(C)C)cc2CC(=O)N([C@H](C)CO)C[C@H]1C
-0.4,Cc1noc(C)c1S(=O)(=O)N(C)C[C@H]1Oc2c(cccc2N(C)C)C(=O)N([C@H](C)CO)C[C@@H]1C
-3.7,C[C@@H]1CN([C@@H](C)CO)C(=O)Cc2cc(NC(=O)Nc3ccc(F)cc3)ccc2O[C@@H]1CN(C)C
0.4,C[C@@H]1CN([C@H](C)CO)C(=O)c2cccc(NS(=O)(=O)c3cn(C)cn3)c2O[C@H]1CN(C)C(=O)NC1CCCCC1
0.1,Cc1noc(C)c1S(=O)(=O)Nc1ccc2c(c1)C(=O)N([C@H](C)CO)C[C@@H](C)[C@@H](CN(C)C(=O)c1ccncc1)OCCCC[C@H](C)O2
-2.6,COc1ccc(CN(C)C[C@H]2Oc3c(NC(=O)Nc4c(C)noc4C)cccc3C(=O)N([C@@H](C)CO)C[C@@H]2C)cc1
-0.5,Cc1noc(C)c1S(=O)(=O)N(C)C[C@H]1Oc2ccc(N(C)C)cc2CC(=O)N([C@@H](C)CO)C[C@@H]1C
-2.1,CNC[C@@H]1Oc2c(NC(=O)Nc3ccccc3)cccc2C(=O)N([C@H](C)CO)C[C@@H]1C
-0.3,Cc1noc(C)c1NC(=O)N(C)C[C@@H]1OCCCC[C@@H](C)Oc2ccc(NS(=O)(=O)c3cccs3)cc2C(=O)N([C@H](C)CO)C[C@@H]1C
2.0,COc1ccc(S(=O)(=O)Nc2cccc3c2O[C@H](CN(C)Cc2ccc4c(c2)OCO4)[C@@H](C)CN([C@H](C)CO)C3=O)cc1
0.6,C[C@@H]1CN([C@@H](C)CO)C(=O)CCCn2nncc2CO[C@H]1CN(C)Cc1ccc(C(F)(F)F)cc1
5.9,C[C@@H]1CN([C@H](C)CO)C(=O)c2cc(NS(=O)(=O)c3cccs3)ccc2O[C@@H]1CN(C)CC1CC1
0.1,C[C@H]1CN([C@@H](C)CO)C(=O)c2cccc(NS(=O)(=O)c3ccccc3)c2O[C@@H]1CN(C)C(=O)NC1CCCCC1
-4.1,Cc1noc(C)c1S(=O)(=O)Nc1ccc2c(c1)C(=O)N([C@@H](C)CO)C[C@@H](C)[C@H](CN(C)C(=O)c1ccncc1)OCCCC[C@@H](C)O2
?,C[C@@H]1CN([C@H](C)CO)C(=O)c2cc(NC(=O)C3CC3)ccc2O[C@@H]1CN(C)Cc1ccc(C(F)(F)F)cc1
-2.0,C[C@H]1CN([C@@H](C)CO)C(=O)Cc2cc(NC(=O)NC3CCCCC3)ccc2O[C@H]1CN(C)Cc1ccc(C(=O)O)cc1
?,Cc1noc(C)c1NC(=O)Nc1cccc2c1O[C@H](CN(C)Cc1ccc3c(c1)OCO3)[C@@H](C)CN([C@@H](C)CO)C2=O
1.0,C[C@H](CO)N1C[C@H](C)[C@H](CN(C)Cc2ccc(C(=O)O)cc2)OCCCC[C@H](C)Oc2ccc(NC(=O)c3ccncc3)cc2C1=O
-5.6,C[C@@H]1CCCCO[C@H](CN(C)C(=O)c2ccccc2)[C@@H](C)CN([C@H](C)CO)C(=O)c2cc(NC(=O)Nc3ccc4c(c3)OCO4)ccc2O1
?,C[C@@H]1CN([C@@H](C)CO)C(=O)Cc2cc(NC(=O)C3CC3)ccc2O[C@H]1CN(C)Cc1ccncc1
4.3,C[C@@H]1CN([C@@H](C)CO)C(=O)c2cc(NC(=O)Nc3ccc(F)cc3)ccc2O[C@@H](C)CCCCO[C@@H]1CN(C)Cc1ccc(C(=O)O)cc1
-5.2,CC(C)NC(=O)Nc1ccc2c(c1)C(=O)N([C@@H](C)CO)C[C@H](C)[C@@H](CN(C)C(=O)CCCN(C)C)OCCCC[C@H](C)O2
3.8,C[C@@H]1CN([C@H](C)CO)C(=O)c2cccc(NS(C)(=O)=O)c2O[C@H]1CN(C)Cc1ccc(Cl)c(Cl)c1
4.8,C[C@H]1CCCCO[C@@H](CN(C)C(=O)CCCN(C)C)[C@@H](C)CN([C@@H](C)CO)C(=O)c2cc(NC(=O)Nc3ccccc3)ccc2O1
-0.7,COc1ccc(S(=O)(=O)N(C)C[C@@H]2Oc3ncccc3C(=O)N([C@H](C)CO)C[C@@H]2C)cc1
0.5,COc1ccc(S(=O)(=O)N(C)C[C@H]2Oc3ccc(NS(C)(=O)=O)cc3CC(=O)N([C@@H](C)CO)C[C@@H]2C)cc1
1.1,C[C@@H]1CN([C@H](C)CO)C(=O)CCCn2cc(nn2)CO[C@@H]1CN(C)S(=O)(=O)c1cccs1
0.0,C[C@@H]1CN([C@H](C)CO)C(=O)c2cc(N(C)C)ccc2O[C@@H]1CN(C)C(=O)Nc1ccc2c(c1)OCO2
2.0,C[C@@H]1CCCCO[C@@H](CN(C)S(=O)(=O)c2cccs2)[C@H](C)CN([C@@H](C)CO)C(=O)c2cc(NS(=O)(=O)c3cccs3)ccc2O1
2.3,CC(C)NC(=O)N(C)C[C@H]1OCCCC[C@H](C)Oc2ccc(NC(=O)Nc3cccc4ccccc34)cc2C(=O)N([C@H](C)CO)C[C@@H]1C
0.1,C[C@@H]1CCCCO[C@H](CN(C)Cc2ccccc2)[C@H](C)CN([C@H](C)CO)C(=O)c2cc(NS(C)(=O)=O)ccc2O1
-8.2,Cc1noc(C)c1S(=O)(=O)Nc1cccc2c1O[C@H](CN(C)Cc1ccc3c(c1)OCO3)[C@H](C)CN([C@H](C)CO)C2=O
1.9,COc1ccc(CN(C)C[C@H]2Oc3c(NC(=O)NC4CCCCC4)cccc3C(=O)N([C@H](C)CO)C[C@H]2C)cc1
0.6,C[C@@H]1CN([C@@H](C)CO)C(=O)c2cccc(NS(=O)(=O)c3cn(C)cn3)c2O[C@@H]1CN(C)S(=O)(=O)c1ccc(F)cc1
?,C[C@H](CO)N1C[C@H](C)[C@@H](CN(C)C(=O)NC2CCCCC2)Oc2ccc(NC(=O)c3ccncc3)cc2C1=O

Some of the compounds tested. The share of hits here may be higher or lower than overall.
